HCMV UL50-53 inh = inhibitors of HCMV UL50-UL53 interaction, biochemical, HTRF; normalized percent inhibition; inhibition, % (concentration not given with the values); 190,000 compounds, 0.15% hits;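 active = both replicates at 50% or more, plus weaker picks with an unusually low signal ratio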;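 also: stock transfer was 100 nL into about 20 µL; 0% = negative control wells and 100% = wells with untagged competitor protein; inactives centre near -12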
GIV-Gai inh = inhibitors of GIV peptide binding to Galpha-i3, primary screen, biochemical, fluorescence polarization, FITC-GIV GBA peptide, rat Galphai3. Guanine nucleotide-binding protein G(i) subunit alpha-3 (Rattus norvegicus), P08753. percent of control (FP), % (concentration not given with the values). 210,000 compounds, 0.42% hits. 90 min; stronger effect = lower value; scaled: aluminum fluoride 0%, vehicle 100%;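 active = replicate mean at 85% of control or lower, very high polarization wells dropped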;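 also: wells of about 15 µL received 100 nL stock; the first replicate is given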
Target sequence (P08753 whole entry, looked up): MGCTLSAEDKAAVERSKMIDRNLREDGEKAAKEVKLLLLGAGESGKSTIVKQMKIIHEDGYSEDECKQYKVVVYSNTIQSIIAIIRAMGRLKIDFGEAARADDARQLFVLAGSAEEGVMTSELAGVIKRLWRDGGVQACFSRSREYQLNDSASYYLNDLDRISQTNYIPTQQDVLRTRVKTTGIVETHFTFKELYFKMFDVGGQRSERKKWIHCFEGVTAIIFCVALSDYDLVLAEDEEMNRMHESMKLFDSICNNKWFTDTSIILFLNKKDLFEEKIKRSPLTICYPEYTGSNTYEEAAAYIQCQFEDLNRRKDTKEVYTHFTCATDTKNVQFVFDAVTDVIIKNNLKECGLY
Sa growth inh = S. aureus growth inhibition at 42 and 30 °C, primary screen, LtaS inhibitor project, RN4220, two temperatures | relative growth, % (concentration not given with the values) | OD600, 20 h, 42 °C; stronger effect = lower value | 170,000 compounds, 0.53% hits;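 active = growth at 42 °C up to 50% and 20 or more points under that at 30 °C, or under 10% at both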;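 also: 300 nL library stock went into each well; scaled to the means of positive and negative controls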
Sa growth inh second temp = second read-out of Sa growth inh, no call of its own (marks repeat the call); relative growth, %; measured here: growth at 30 °C;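 optical density after 20 h as mean of two plates; 100% = untreated growth and lower means inhibition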
An asterisk follows results filed as active; . = not tested or not shown; & = joins results of further samples. This is a random part of the collection. About 0.85% of those tested had a hit in this group.

SMILES	HCMV UL50-53 inh	GIV-Gai inh	Sa growth inh	Sa growth inh second temp
CCOC(=O)c1ccc(NC(=O)c2ccc[n+]([O-])c2)cc1	-20	.	93	91
CN1C(=O)CSC1=Nc1cccc(C(=O)O)c1	-5	96	100	113
CC(Sc1nnc(-c2cccs2)n1C1CC1)C(=O)NCC1CCCO1 (stereo not drawn)	-8	.	85	82
CCc1c(C)nc(-n2nc(C)cc2NC(=O)c2ccc(OC(C)C)cc2)[nH]c1=O	16	102	.	.
CCCN(C(=O)c1c(C)oc2ncn(CC(C)C)c(=O)c12)c1ccccc1C	.	107	81	90
O=C(CN1C(=O)c2cccnc2Oc2ccc(Cl)cc21)Nc1cccc(C(F)(F)F)c1	.	108	99	88
Cc1[nH]c(C(=O)N2CCCCC2)c(C)c1C(=O)NC1CCCCC1	1	100	110	98
N#Cc1nc(COc2ccc(Cl)cc2)oc1NCCc1ccccc1	.	102	98	78
COc1ccc2c(C)nc(NC3=NC(c4ccccc4)CC(=O)N3)nc2c1 (stereo not drawn)	-39	105	81	76
CCOC(=O)c1cc(-c2ccccc2)n(CCC(=O)Nc2cc(C)cc(C)c2)c1C	.	96	120	94

Brought forward from above: 6 compounds, then new ones.
SMILES	HCMV UL50-53 inh	GIV-Gai inh	Sa growth inh	Sa growth inh second temp
CCCN(C(=O)c1c(C)oc2ncn(CC(C)C)c(=O)c12)c1ccccc1C	.	107	81	90
O=C(CN1C(=O)c2cccnc2Oc2ccc(Cl)cc21)Nc1cccc(C(F)(F)F)c1	.	108	99	88
Cc1[nH]c(C(=O)N2CCCCC2)c(C)c1C(=O)NC1CCCCC1	1	100	110	98
N#Cc1nc(COc2ccc(Cl)cc2)oc1NCCc1ccccc1	.	102	98	78
COc1ccc2c(C)nc(NC3=NC(c4ccccc4)CC(=O)N3)nc2c1 (stereo not drawn)	-39	105	81	76
CCOC(=O)c1cc(-c2ccccc2)n(CCC(=O)Nc2cc(C)cc(C)c2)c1C	.	96	120	94
Nc1nc2ccc(SC(F)F)cc2s1	-33	.	88	65
Cc1ccc(OC(=O)CSc2nnc(-c3ccc4c(c3)OCO4)o2)c(C)c1	-17	101	85	89
Cc1cc(=O)n(CC(=O)NC(C)C)c2c1c(C)nn2-c1ccccc1	-34	107	96	90
Cc1nc2c(c(C)c1CCC(=O)NCc1ccc(F)cc1)c(=O)n(C)c(=O)n2C	-40	105	95	94
CCN(C(=O)CN(C)S(=O)(=O)c1ccc2c(c1)c(=O)n(C)c(=O)n2C)c1ccc(OC)cc1	-28	101	98	86
COc1nnc(-c2ccc(N3CCOCC3)c(NS(=O)(=O)c3ccc(C)cc3)c2)c2ccccc12	.	99	99	87
Cc1ccc(NC(=O)C23CCC(C)(C(=O)C2)C3(C)C)cc1 (stereo not drawn)	-11	100	102	99
O=C(c1ccc(F)cc1)N1CCC(c2nc3ccccc3o2)CC1	-28	103	94	86
Cc1ccc2c(c1)sc(=NC(=O)CN1C(=O)c3ccccc3C1=O)n2C	-14	98	90	86
COc1cccc(C(=O)OC2CC(C)N(C)CC2C)c1 (stereo not drawn)	-2	97	107	93
Cc1ccc(C2CC(=O)Nc3c2c(C)nn3-c2nc(C)cc(C)n2)c(C)c1 (stereo not drawn)	4	100	87	83
Cc1ccc(NC(=O)CN2c3ccccc3S(=O)(=O)c3ccccc32)cc1F	-17	103	95	76
Cc1cccc(C)c1NC(=O)N1C2CCC1CC(O)(c1cccnc1)C2 (stereo not drawn)	-20	106	85	89
Cn1nc(-c2ccc(S(N)(=O)=O)s2)cc1C(F)(F)F	-17	99	84	86
Cc1ccc(-c2nnc(SCc3csc(-c4ccccc4)n3)n2N)cc1	-29	.	78	92
Cc1ccc(NNC(=O)c2cc(C)on2)c(C)c1	-1	107	101	97
CCCn1c(CN2CCN(c3ccc(OC)cc3)CC2)nc2c1c(=O)[nH]c(=O)n2C	-9	99	98	90
CCCCOc1ccc(C(=O)Nc2nc3c(s2)CC(C)CC3)cc1 (stereo not drawn)	-2	97	90	94
CCN(CC)C(=O)Cn1c(=O)n(CC2CCC(C(=O)NC(C)C)CC2)c(=O)c2sccc21 (stereo not drawn)	-23	106	.	.
O=C(NCc1ccc(Cl)cc1)C1CCCN(c2nc3ncccc3n3cccc23)C1 (stereo not drawn)	-3	106	.	.

Continued; it opens with the 5 that closed the last part.
SMILES	HCMV UL50-53 inh	GIV-Gai inh	Sa growth inh	Sa growth inh second temp
Cc1ccc(NNC(=O)c2cc(C)on2)c(C)c1	-1	107	101	97
CCCn1c(CN2CCN(c3ccc(OC)cc3)CC2)nc2c1c(=O)[nH]c(=O)n2C	-9	99	98	90
CCCCOc1ccc(C(=O)Nc2nc3c(s2)CC(C)CC3)cc1 (stereo not drawn)	-2	97	90	94
CCN(CC)C(=O)Cn1c(=O)n(CC2CCC(C(=O)NC(C)C)CC2)c(=O)c2sccc21 (stereo not drawn)	-23	106	.	.
O=C(NCc1ccc(Cl)cc1)C1CCCN(c2nc3ncccc3n3cccc23)C1 (stereo not drawn)	-3	106	.	.
Cc1cc(-c2onc(C)c2C(=O)O)no1	1	102	90	95
Cc1[nH]n(-c2nc(-c3ccccc3)cs2)c(=O)c1N=Nc1ccc(O)cc1	-12	112	99	70
COc1ccc(-c2cc(-c3ccccc3)c(C#N)c(SCS(=O)Cc3ccccc3)n2)cc1 (stereo not drawn)	.	102	91	82
CC(C)Cn1c(=O)c2sccc2n2c(CCC(=O)NC3CCCCC3C)nnc12 (stereo not drawn)	-25	95	.	.
COc1ccc(N=C2C(=O)N3c4c(cc(C)cc42)C(C)=CC3(C)C)cc1	.	106	79	67
CC(C)Cn1c(=O)c2sccc2n2c(CCCC(=O)N(C)Cc3ccco3)nnc12	.	100	95	90
COc1ccc(S(=O)(=O)Nc2cccc(-c3ccc(N4CCCC4)nn3)c2)c(OC)c1	.	104	102	88
Nc1nc(C(=O)N2CCOCC2)nn1S(=O)(=O)c1ccccc1	-11	101	83	89
N[C@@H](CCCC(=O)O)C(=O)O	0	100	.	.
CCOc1ccc2[nH]c3nc(=S)[nH]nc3c2c1	-40	106	110	92
Cc1cc(C)c(C=C2C(=O)OC(C)(C)OC2=O)[nH]1	-123	104	86	82
COc1ccc(NC(=O)c2cc3c(=O)n(C)c4ccccc4c3s2)cc1Cl	-13	102	101	84
O=C(CCn1cnc2ccccc2c1=O)N1CCN(c2ccccc2)CC1	-40	102	.	.
CS(=O)(=O)Nc1ccc(C2=NN(S(C)(=O)=O)C(c3ccccc3F)C2)cc1 (stereo not drawn)	.	125	87	82
O=C(C1CCCN(c2nc3ncccc3n3cccc23)C1)N1CCN(c2ccccn2)CC1 (stereo not drawn)	-12	108	.	.
CCOc1ccc2c(=O)c(Oc3ccccc3Br)coc2c1	.	105	103	94
CC(=O)Oc1ccccc1C(=O)N1CCCc2ccccc21	.	102	102	84
CN(C)N1C(=O)/C(=C/c2cccs2)SC1=Nc1ccccc1	3	85*	81	112
CCCCn1c(SCC(=O)Nc2cccc(OC)c2)nc2c(sc3ccccc32)c1=O	.	105	97	83
COc1ccc(NC(=O)C(CSCc2ccccc2)N2Cc3ccccc3C2=O)cc1OC (stereo not drawn)	-7	100	93	85
CC(=O)c1ccc(NC(=O)CSc2nnc3ccc(-c4ccc(Br)cc4)nn23)cc1	.	93	113	82
O=C(OCc1cc(=O)n2nc(C3CCCCC3)sc2n1)c1ccc(F)cc1	.	103	99	90
COC(=O)Cn1c(O)c(N=NC(=O)C2COc3ccccc3O2)c2ccccc21 (stereo not drawn)	-38	98	116	80
Cc1ccc(C)c(C(=O)CN2C(=O)NC3(CCc4ccccc43)C2=O)c1 (stereo not drawn)	11	.	123	109
COc1cc(C(=O)COC(=O)Cn2cnc3ccccc3c2=O)ccc1OC(F)F	-18	.	109	99
COc1ccccc1Nc1ncnc2sc(C)c(S(=O)(=O)N3CCCCC3)c12	6	107	.	.
CCCCn1c(=O)[nH]c(=O)c2c(C(F)(F)F)cc(-c3ccc(OC)cc3)nc21	0	.	102	94
CN(C)CCCn1c(=O)c2[nH]cnc2n(C)c1=O	-22	100	.	.
COCCNC(=O)CCCn1c(SCC(=O)c2ccc(F)cc2)nc2c(sc3ccccc32)c1=O	-42	98	103	93
Nc1ccc(-c2cc3ccccc3oc2=O)cc1	-76	114	103	92
CCOC(=O)CC(=O)CSc1nc(-c2cccs2)cc(-c2ccc(OC)cc2)c1C#N	0	106	.	.
CCN1CCN(C(=O)CC2OC(=O)c3ccccc32)CC1 (stereo not drawn)	6	.	97	90
COc1ccc(C)cc1NC(=O)N1CCC(CN2CCC(C)CC2)CC1	.	98	128	93
CCOC(=O)c1c(S(=O)(=O)N2CCN(c3cc(Cl)ccc3C)CC2)c(C)n(C)c1C	.	105	113	98
COC(=O)c1c(NC(=O)c2cccc(OC)c2)sc2c1CCC(C(C)(C)C)C2 (stereo not drawn)	-26	98	100	91
COc1ccc(C2=C(C)C(=O)N(Cc3ccc(C(=O)Nc4ccc(C)c(C)c4)cc3)S2(=O)=O)cc1	.	105	113	99
CCCc1cc(C(=O)Nc2sc3c(c2C#N)CCC(C(C)(C)C)C3)no1 (stereo not drawn)	-15	98	88	91
Cc1ccccc1CSc1ncnc2nc[nH]c12	8	104	.	.
COc1ccc(CNC(=O)C(CC(C)C)NS(=O)(=O)c2ccc3c(c2)oc(=O)n3C)cc1 (stereo not drawn)	-14	103	100	91
S=c1[nH]nc(-c2ccco2)n1Cc1ccccc1	3	.	93	78
O=C(NCc1ccc(F)cc1)C1CC=C(c2c[nH]c3ccccc23)CC1 (stereo not drawn)	-11	104	.	.
COc1ccc(-c2nn(-c3cccc([N+](=O)[O-])c3)c3c2cnc2cc4c(cc23)OCO4)cc1	.	103	81	86
O=C1N/C(=N\c2ccccn2)SC1Cc1ccc(F)cc1 (stereo not drawn)	-25	105	.	.
Cc1ccc(N=Cc2c[nH]c3ccccc23)c(C)c1	-12	.	126	88
COc1ccc(C2CC(=O)N(c3ccc(F)c(Cl)c3)C(=O)C2)cc1	0	99	.	.
Cn1cc(CCC(=O)N2CCC(N3CCCCC3)CC2)c(-c2ccc(F)cc2)n1	-19	98	.	.
c1cc(CNC2CCCCCC2)cs1	-17	.	92	91
COc1cccc(-c2noc(C3CCCN(S(=O)(=O)c4ccccc4F)C3)n2)c1 (stereo not drawn)	-8	104	102	76
CCOC(=O)c1nn(-c2ccccc2)c(=O)cc1OCC(=O)NCc1ccc2c(c1)OCO2	-10	105	110	100
CC(=O)Nc1c(OC(C)=O)c2ccccc2oc1=O	-49	101	97	106

(continued)
SMILES	HCMV UL50-53 inh	GIV-Gai inh	Sa growth inh	Sa growth inh second temp
O=c1[nH]cnc2onc(-c3ccc(F)cc3)c12	12	105	86	77
CCc1nnc(C(=O)Nc2cccc(C(=O)NCc3ccccc3)c2)s1	-16	104	.	.
Cn1cc(NC(=O)NCC2COc3ccccc3O2)c2ccccc2c1=O (stereo not drawn)	13	99	107	100
Oc1ccc(-c2nccc(-c3ccccn3)n2)cc1	-21	102	.	.
CC(C)(C)NC(=O)COc1ccc(CNc2ncn[nH]2)cc1	1	99	107	91
Cc1nc(C)c(-c2cnc(NS(=O)(=O)c3ccc(Cl)cc3)nc2)s1	-20	103	92	83
CC(=O)Oc1ccc(-n2c(C)cc(/C=C3\C(=O)NC(=S)N(c4ccccc4)C3=O)c2C)cc1	-25	111	.	.
COc1ccc(/C=C/C(=O)Nc2nc(N)n(-c3ccccc3)n2)cc1	-32	108	124	96
COc1ccc(NC(=O)CCC(=O)c2ccc(OC)cc2)cc1	.	105	99	77
Cc1c(Cl)cccc1NC(=O)CN1C(=O)CSc2ccc(S(=O)(=O)N3CCCC3)cc21	.	109	104	79
CN(C)CCN(C(=O)c1ccc2c(c1)OCCO2)c1nc2ccc(Cl)cc2s1	1	102	.	.
O=C(O)C1Cc2c([nH]c3ccccc23)C(Cc2ccccc2)N1 (stereo not drawn)	-52	107	105	80
COc1cc(Nc2cc(C)nc3ncnn23)cc(OC)c1OC	2	108	108	96
N#Cc1c(NC(=O)c2ccc(Cn3cc(Br)cn3)o2)sc2c1CCCCC2	.	107	115	70
CN=c1nc(-c2ccccc2)n(-c2ccccc2)s1	-10&-26	104	.	.
COC1=NS(=O)(=O)c2ccccc21	-7	104	83	90
CCn1c(=O)c2sccc2n2c(CCC(=O)NCc3ccccc3)nnc12	-16	101	96	88
Cc1cc(C)n2nc(C(=O)N(C)C(c3ccccc3)c3ccccc3)nc2n1	-5	.	101	89
COC(=O)/C(=C/c1ccc(F)cc1)NC(C)=O	-15	107	112	68
Nc1ccc2nc(CCCc3nc4ccc(N)cc4s3)sc2c1	-12	.	135	101
Cc1ccc2occ(CC(=O)Nc3ccc(Cl)c(C(F)(F)F)c3)c2c1	2	106	94	59
CCOC(=O)Cn1c(=O)oc2cc(S(=O)(=O)N(CCN(C)C)Cc3ccccc3)ccc21	-15	102	100	90
O=c1onc(-c2cccc(Cl)c2)n1-c1ccccc1	-32	101	91	85
COCC(C)Nc1oc(-c2ccc(Cl)cc2)nc1C#N (stereo not drawn)	8	.	110	101

High-throughput results from PubChem BioAssay.
